Compound activity as filed in PubChem.
HCMV NEC inh: disrupts HCMV UL50-UL53 complex binding | HTRF UL50-UL53 interaction, normalized percent inhibition | inhibition, % (no concentration beside the values) | 190,000 compounds, 0.15% hits;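 active = both replicates at 50% or more, plus weaker picks with an unusually low signal ratio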;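 also: stock transfer was 100 nL into about 20 µL; 0% = negative control wells and 100% = wells with untagged competitor protein; inactives centre near -12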
GIV Gai3 FP: GIV-Galpha-i interaction inhibition; percent of control (FP), % (test concentration not listed); Galpha-i3/FITC-GIV peptide fluorescence polarization, 90 min; hits give low values; scaled: aluminum fluoride 0%, vehicle 100%; AID 1224905; 210,000 compounds, 0.42% hits;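 active = replicate mean at 85% of control or lower, very high polarization wells dropped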;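 also: wells of about 15 µL received 100 nL stock; the first replicate is given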
Target sequence (P08753 whole entry, looked up): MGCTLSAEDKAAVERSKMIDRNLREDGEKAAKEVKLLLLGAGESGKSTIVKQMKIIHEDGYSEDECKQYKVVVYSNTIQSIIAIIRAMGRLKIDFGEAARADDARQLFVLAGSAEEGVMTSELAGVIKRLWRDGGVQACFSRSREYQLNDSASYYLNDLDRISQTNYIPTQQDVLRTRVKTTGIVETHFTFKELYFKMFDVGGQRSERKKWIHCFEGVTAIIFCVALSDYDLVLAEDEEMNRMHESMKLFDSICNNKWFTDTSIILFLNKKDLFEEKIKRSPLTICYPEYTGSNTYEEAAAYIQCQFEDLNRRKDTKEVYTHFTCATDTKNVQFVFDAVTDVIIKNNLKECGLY
Sa growth 42C: blocks Staphylococcus aureus growth; S. aureus RN4220 growth, OD600, 20 h, 42 °C; hits give low values; relative growth, % (test concentration not listed); 170,000 compounds, 0.53% hits; AID 720641;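 active = growth at 42 °C up to 50% and 20 or more points under that at 30 °C, or under 10% at both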;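 also: 300 nL library stock went into each well; scaled to the means of positive and negative controls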
Sa growth 42C second temp: recorded beside Sa growth 42C, whose call it bears; relative growth, %; measured here: growth at 30 °C;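 optical density after 20 h as mean of two plates; 100% = untreated growth and lower means inhibition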
* = called active by the depositor; x = no result given; & = joins results of further samples. Compounds were not picked by outcome; any-hit rate near 0.79%.

SMILES	HCMV NEC inh	GIV Gai3 FP	Sa growth 42C	Sa growth 42C second temp
CCc1ccc(OCC(=O)N/N=C(\C)c2ccc(-n3ccnc3)cc2)cc1	-30	x	101	94
CC(C)NC(=O)CCCCn1c(=O)c2ccccc2n(CC(=O)Nc2ccc(Cl)cc2F)c1=O	-25	109	x	x
COc1ccc(CNC(=O)c2ccc(Cn3cc(Cl)cn3)o2)cc1	-4	98	100	77
CCN1CCN(C(=O)c2sc(-n3nc(C)cc3C)nc2C)CC1	-7	94	x	x
C=CC(=O)NC(C)(C)Cc1ccccc1	-14	105	136	99
O=C(CCC1CCCC1)N1CCC(c2nc(-c3ccc(F)cc3)no2)CC1	-9	101	x	x
COC(=O)C1=CN(C)C=C(C(=O)OC)C1c1ccc(OC)cc1	-6	97	92	94
COc1cccc(C(=O)NCC(c2ccc(N(C)C)cc2)N2CCc3ccccc32)c1 (stereo not given)	x	102	118	97
O=C(CCCCCN1C(=O)C2C3C=CC(C3)C2C1=O)Nc1ncccc1O (stereo not given)	-35	101	88	84
CCn1c2c(=O)[nH]c(=O)n(C)c2n2c(-c3ccc(Br)cc3)nnc12	-31	100	x	x
COc1ccc(N(Cc2nnc3n2CCCCC3)C(=O)Nc2ccccc2)cc1	-18	102&100	100	88
COc1ccc(N2C(=O)c3cc4occc4n3CC2(C)C(=O)NC2CCCCC2)cc1OC (stereo not given)	5	98	x	x
CC(=O)N1CCc2c(sc3c2c(=O)n(-c2ccccc2)c(=O)n3CC(=O)Nc2cccc(C)c2)C1	-6	102	108	93
Cc1nc2ccc(NC(=O)C3CC3)cc2c(=O)n1Cc1ccc(F)cc1	-5	108	108	89
O=C1CC2(CCCC2)CC(=O)N1CCNCC1COc2ccccc2O1 (stereo not given)	-13&-74	x	87	84

Four compounds from above, reduced to GIV Gai3 FP, Sa growth 42C and HCMV NEC inh.
| smiles | GIV Gai3 FP | Sa growth 42C | HCMV NEC inh |
| --- | --- | --- | --- |
| COC(=O)C1=CN(C)C=C(C(=O)OC)C1c1ccc(OC)cc1 | 97 | 92 | -6 |
| COc1cccc(C(=O)NCC(c2ccc(N(C)C)cc2)N2CCc3ccccc32)c1 (stereo not given) | 102 | 118 | x |
| O=C(CCCCCN1C(=O)C2C3C=CC(C3)C2C1=O)Nc1ncccc1O (stereo not given) | 101 | 88 | -35 |
| CCn1c2c(=O)[nH]c(=O)n(C)c2n2c(-c3ccc(Br)cc3)nnc12 | 100 | x | -31 |

More records follow:
SMILES	HCMV NEC inh	GIV Gai3 FP	Sa growth 42C	Sa growth 42C second temp
O=C(O)CC(N=C1NS(=O)(=O)c2ccccc21)c1ccc(Cl)cc1 (stereo not given)	-11	x	91	93
CSc1nnc(Cc2cc(=O)[nH]c(=O)[nH]2)n1-c1ccccc1	1	105	98	103
Fc1ccc(Cn2nnc(-c3cccc(C(F)(F)F)c3)n2)cc1Cl	4	104	100	111
O=C(COc1ccc(C2Nc3ccccc3S(=O)(=O)N2Cc2ccccc2)cc1)N1CCCCC1 (stereo not given)	-18	98	x	x
Cc1ccc(C(C)NC(=O)C2CCCN(c3ccnc(-c4ccc(F)cc4)n3)C2)cc1 (stereo not given)	-21	106	x	x
C=CCNc1nc(Cl)nc(Nc2ccc(OCC)cc2)n1	-9	98	104	84
Cc1cc(C)c(C#N)c(SCCCCN2C(=O)c3ccccc3C2=O)n1	9	x	91	97
COc1ccc(CCNC(=O)c2ccc(Cn3c(=O)c4ccccc4n(CC(=O)C(C)(C)C)c3=O)cc2)cc1OC	-16	102	107	89
[O-]c1nn(-c2cccc(Cl)c2)n[n+]1-c1cccc(Cl)c1	17	x	82	98
COC(=O)N1CCN(CCc2ccccc2)CC1	-1	105	106	106
Cc1ccc(CCNC(=O)C2CCN(S(=O)(=O)N3CCCCC3)CC2)cc1	3	105	100	90
CCC(=O)c1ccc(OCC(=O)N2Cc3ccccc3CC2C(=O)O)cc1 (stereo not given)	-21	x	128	97
CN(CC(=O)NCCc1ccc(Cl)cc1)CC1COc2ccccc2O1 (stereo not given)	-43	x	104	89
CN1CCc2c(sc3c2C(=O)NC(c2ccc(OC(=O)c4ccccc4)cc2)N3)C1 (stereo not given)	-123	23*	117	80
COc1cccc(C2=NOC(C(=O)NCC3CCCO3)C2)c1 (stereo not given)	x	102	126	90
Cc1cc(-c2ccc(C)c(S(=O)(=O)NCCCN3CCCCCC3)c2)on1	-16	102	118	84
COCCn1c(C)cc(C(=O)COC(=O)c2ccc3c(=O)n4c(nc3c2)CCCCC4)c1C	-24	x	85	85
CC(C)NC(=O)N1CCCC(c2cccc(C(=O)NCCCN3CCCC3=O)c2)C1 (stereo not given)	-4	109	x	x
Cc1cc(S(=O)(=O)[C@H]2CS(=O)(=O)C[C@@H]2NC(C)C)ccc1F	-19	105	x	x
O=C(Nc1ccccc1)c1cnn2c1NC(c1ccccc1)=CC2c1ccc(Br)cc1 (stereo not given)	-13	102	x	x
Cc1ccc(C(=O)OC(C)CN2C(C)CCCC2C)cc1 (stereo not given)	x	98	113	76
COc1ccc(NC(=O)n2ncc3cc(Cl)ccc32)cc1	-2&-12	109&106	111	95
CCOCCCn1c(NN)nc2ccccc2c1=O	-26	x	71	69
O=C(CSc1ccccc1)c1ccccc1	-6	x	64	29
COC(=O)C1=C(c2ccccc2)C(c2ccccc2)=C(C(=O)OC)C1=O	-3	104	68	50
COc1cccc(-c2nn(-c3ccc(F)cc3)cc2C(=O)N2CCN(c3ccccc3O)CC2)c1	-16	x	92	86
CCCn1c(N)cc(=O)[nH]c1=O	-30	x	81	87
COc1ccccc1-n1c(C)cc(/C=C(\C#N)C(=O)OCc2nnc(-c3ccccc3)o2)c1C	-14	x	92	94
CC(Oc1ccccc1Cl)C(=O)Nc1ccc2c(c1)NC(=O)CO2 (stereo not given)	-7	102	x	x
Cc1cccc(C2C3=C(CC(c4ccccc4O)CC3=O)Nc3onc(C)c32)c1 (stereo not given)	-1	104	x	x
CCOC(=O)c1c(C)oc2ncnc(Nc3cccc(C(F)(F)F)c3)c12	-35	103	99	91
CCN(CC)CCN(C(=O)c1ccco1)c1nc2ccc(Br)cc2s1	x	105	140	88
CC(C)(C)OC(=O)N1CCC(CNC(=O)Nc2ccccc2)CC1	-35	108	88	71
COC(=O)c1cc(NC2c3ccccc3C(=O)N2c2ccccn2)cc(C(=O)OC)c1 (stereo not given)	x	104	92	93
CCn1c(=O)c2cc(C(=O)NCCN(C)C)sc2c2ccccc21	x	106	115	96
CC(=O)Nc1c(-c2ccccc2)nc2cc(C)ccn12	x	105	122	89
Cn1c(SCC(=O)NC(C)(C)C)nnc1-c1ccccc1	-12	100	122	93
NC(=O)Cc1coc2ccc3ccccc3c12	-29	117	40	25
c1csc(-c2ccc(-c3ccn[nH]3)s2)c1	-37	121	70	38
Cc1noc2c1C(c1ccccc1)C1=C(CC(C)(C)CC1=O)N2 (stereo not given)	-11	x	102	88
CCc1ccc(NC(=O)Nc2nnc(N(CC(C)C)CC(C)C)s2)cc1	x	103	97	92
CCOc1ccccc1NC(=O)C(=O)NCC(c1cccnc1)N1CCN(c2ccccc2)CC1 (stereo not given)	0	105	118	95
CC1=CC(C)(C)N(C(=O)CSc2ccccn2)c2ccccc21	-9	x	115	87
Cc1ccc(S(=O)(=O)n2ncc3c2CCN(C(=O)OC(C)(C)C)C3)cc1	-25	108	84	81
CCOc1ccc(N2C(=O)c3ccc(OC)c(OC)c3C2=O)cc1	-29	x	107	97

Not a retest: an excerpt of the list.
SMILES	HCMV NEC inh	GIV Gai3 FP	Sa growth 42C	Sa growth 42C second temp
CCOc1ccccc1NC(=O)C(=O)NCC(c1cccnc1)N1CCN(c2ccccc2)CC1 (stereo not given)	0	105	118	95
CC1=CC(C)(C)N(C(=O)CSc2ccccn2)c2ccccc21	-9	x	115	87
Cc1ccc(S(=O)(=O)n2ncc3c2CCN(C(=O)OC(C)(C)C)C3)cc1	-25	108	84	81
CCOc1ccc(N2C(=O)c3ccc(OC)c(OC)c3C2=O)cc1	-29	x	107	97

(list continues)
SMILES	HCMV NEC inh	GIV Gai3 FP	Sa growth 42C	Sa growth 42C second temp
CCn1nc(C)c2c1c(=O)n(Cc1ccccc1)c(=O)n2CC(=O)N1CCC(C)CC1	6	99	x	x
O=C(OCCNc1c(F)c(F)nc(F)c1F)c1ccccc1	x	107	84	98
CC(OC(=O)C1CCN(c2ccc(C(F)(F)F)cn2)CC1)C(=O)N(C)c1ccccc1 (stereo not given)	0	x	105	80
CN1CCC(OC(=O)COc2ccccc2)CC1	-1	x	97	90
CCOC(=O)N1CCC(NC(=O)c2cc(C(=O)Nc3ccc(C)c(F)c3)ccc2CO)CC1	-13	105	112	88
Cc1ccc2c(c1)c1c(c(=O)n(-c3ccccc3C)c(=O)n1CC(=O)NCc1ccccc1)n2C	x	105	94	94
COc1ccc(C2Nc3ccc4ccccc4c3C3=C2C(=O)CCC3)cc1OC (stereo not given)	-17	106&98	x	x
O=C(NCc1ccccc1F)c1ccc(-n2nc(OCc3cccc(F)c3)ccc2=O)cc1	24	101	x	x
CC(C)(C)c1ccc(C23OC(=O)C(C)(C)C2OC(=O)C3(C)C)cc1 (stereo not given)	-12	x	96	83
O=C(NCC[n+]1ccc2ccccc2c1)c1ccccc1	-34	x	87	89
CC(C)n1ncc2c(C(=O)O)cc(C3CC3)nc21	-20	x	101	101
COc1cc(-c2noc(CN3CCN(c4ccccc4)CC3)n2)cc(OC)c1OC	15	105	103	87
Cc1ccc(SCc2nc(-c3ccc(C(=O)NCc4ccccc4Cl)cc3)oc2C)cc1	x	101	108	92
Cc1cccc2nc(CSC3=Nc4ccccc4C4=NC(CCC(=O)NCc5ccco5)C(=O)N34)cc(=O)n12 (stereo not given)	-76	101	98	81
N#Cc1c2c(c(NCC3CCCO3)n3c1nc1ccccc13)CCCC2 (stereo not given)	-30	94	84	88
CCOc1ccccc1CNc1ncnc2c1nc1n2CCCC1	x	103	117	77
O=C1CCCN1Cc1nnc(SCc2c(Cl)cccc2Cl)o1	-8	x	96	99
CS(=O)(=O)N(Cc1cccc(F)c1)n1c(SCc2cccc(F)c2)nc2ccccc2c1=O	x	103	93	83
Cc1[nH]c(=O)c(C#N)c(C)c1CCC(=O)N[C@@H](Cc1ccccc1)c1nc2ccccc2[nH]1	18	x	85	93
COc1cc2c(cc1OC)C1Cc3ccc(OC)c(OC)c3CN1CC2 (stereo not given)	1	95	x	x
Cc1cc2nc(CSc3nnc(NC(=O)CCC4CCCC4)s3)cc(=O)n2o1	-26	106	x	x
CCOC(=O)c1cc(S(=O)(=O)N(C)CC(=O)NC2CCCCC2)cn1C	-21	109	x	x
COc1cccc(NS(=O)(=O)c2ccc(-n3cccn3)cc2)c1	-35	103	113	92
CCN(CC)S(=O)(=O)c1cc(-c2ccc(=O)[nH]n2)ccc1Cl	-14	101	x	x
O=C(Oc1cccc(-n2cnnn2)c1)c1ccccc1Br	13	99	x	x
Cc1nnc(NCC(C)(C)C)s1	x	99	93	95
O=C(Cn1c2ncccc2c(=O)n1-c1ccccc1)Nc1ccc(F)c(F)c1	-1	109&106	105	97
CCOC(=O)C1=C(C)NC2=C(C(=O)CC(c3ccc(Cl)cc3)C2)C1c1ccc(OC)cc1OC (stereo not given)	-23	93	x	x
O=S(=O)(N(c1ccc(Br)cc1)C(F)F)C(F)(F)F	-10	x	100	92
COc1ccc(-n2c(SCC(=O)N3CCC(C)CC3)nc3c([nH]c4ccccc43)c2=O)cc1	x	99	117	89
O=C(Nc1ccccc1C(=O)NCc1cccnc1)c1ccco1	-19	107	91	84
Cc1nn(-c2ccc(F)cc2)c(Cl)c1/C=C/C(=O)OCC(=O)Nc1c(C#N)oc2ccccc12	-22	x	77	86
OCCN1N=C2c3ccccc3CCC2C1c1ccccc1Cl (stereo not given)	4	101	126	102
COc1ccc(-c2cc(CC(C)C)nc(N)c2C#N)cc1	-7	x	95	91
CC(C)CCNC(=S)Nc1ccccn1	-12	99	101	85
O=C(CSC(=O)c1ccccc1)Nc1ccc(Cl)cn1	-9	x	90	82
CC1CCN(S(=O)(=O)c2ccc3[nH]cc(C(=O)N(Cc4ccco4)CC4CCCO4)c(=O)c3c2)CC1 (stereo not given)	-7	102	x	x
Fc1cccc(CSc2nc(NCCc3ccccc3)c3ccccc3n2)c1	x	102	96	96
O=c1cc(-c2ccccc2)n2c(SCc3c(F)cccc3Cl)nnc2[nH]1	x	104	100	91
CCCCNC(=O)Cc1csc(NC(=O)c2ccccc2)n1	-24	106	x	x
Cn1c(=O)cc(OCC(=O)N2CCN(c3ccccn3)CC2)c2ccccc21	-15	103	x	x
CC1CN(c2ccc(Cl)cc2)c2nc3c(c(=O)n(CCN4CCOCC4)c(=O)n3C)n2C1 (stereo not given)	-17	103	x	x
O=C(NCCC1=CCCCC1)Nc1ccc(Cl)cc1	-5	99	115	103
O=C(CSc1nnc2n1CCCCC2)NCc1ccco1	-31	x	99	87
COc1ccc(CCNC(=O)CCS(=O)(=O)c2cc(Br)cc3c2N(C(C)=O)CC3)cc1OC	-2	98	95	91
CCCCOc1ccc(S(=O)(=O)NCc2cn3ccsc3n2)cc1	-24	101	x	x
c1ccc2c(c1)-c1ccccc1C2C1CCNCC1	0	x	105	97

4 entries from above, ordered by molar mass, rising:
SMILES	HCMV NEC inh	GIV Gai3 FP	Sa growth 42C	Sa growth 42C second temp
c1ccc2c(c1)-c1ccccc1C2C1CCNCC1	0	x	105	97
O=C(Nc1ccccc1C(=O)NCc1cccnc1)c1ccco1	-19	107	91	84
O=c1cc(-c2ccccc2)n2c(SCc3c(F)cccc3Cl)nnc2[nH]1	x	104	100	91
Fc1cccc(CSc2nc(NCCc3ccccc3)c3ccccc3n2)c1	x	102	96	96
